# MT1-MMP act inh: blocks activation of human MT1-MMP | P50281 | HT1080 RFP-PRO-GFP cells, GFP/RFP ratio fluorescence, overnight; percent of plate control window, DMSO zero | GFP/RFP ratio change, % at 20 µM | actives 0.061% (n = 360,000) | AID 651647;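 active = GFP/RFP ratio change of at least 30% with cell ATP level not reduced by more than half and red fluorescence within 50% of control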; note: strong numbers were not always called active
#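 Read-out: GFP/RFP fluorescence ratio; Test system: RFP-PRO-GFP reporter HT1080 cells; Compound dosing: single-point 20 µM compound, 1% DMSO; Times: overnight compound exposure at 37 °C.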
# PABP FP inh: blocks human PABP binding to poly(A) RNA; inhibition, % at 35 µM; actives 1% (n = 290,000); fluorescence polarization;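 active = 50% or more with normal probe brightness, or confirmed in later tests; inconclusive = above 50% with abnormal brightness, or retests that disagree; inactive = below 50% or failed in later tests; about a fifth of its hits are not listed in these tables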;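 note: calls also rest on retests at 20 µM and on dose response follow-up; controls were probe without protein and protein plus probe with vehicle; some compounds called inactive have numbers as strong as hits; many hits fall short of the cut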
# Target sequence (P11940 whole entry, looked up): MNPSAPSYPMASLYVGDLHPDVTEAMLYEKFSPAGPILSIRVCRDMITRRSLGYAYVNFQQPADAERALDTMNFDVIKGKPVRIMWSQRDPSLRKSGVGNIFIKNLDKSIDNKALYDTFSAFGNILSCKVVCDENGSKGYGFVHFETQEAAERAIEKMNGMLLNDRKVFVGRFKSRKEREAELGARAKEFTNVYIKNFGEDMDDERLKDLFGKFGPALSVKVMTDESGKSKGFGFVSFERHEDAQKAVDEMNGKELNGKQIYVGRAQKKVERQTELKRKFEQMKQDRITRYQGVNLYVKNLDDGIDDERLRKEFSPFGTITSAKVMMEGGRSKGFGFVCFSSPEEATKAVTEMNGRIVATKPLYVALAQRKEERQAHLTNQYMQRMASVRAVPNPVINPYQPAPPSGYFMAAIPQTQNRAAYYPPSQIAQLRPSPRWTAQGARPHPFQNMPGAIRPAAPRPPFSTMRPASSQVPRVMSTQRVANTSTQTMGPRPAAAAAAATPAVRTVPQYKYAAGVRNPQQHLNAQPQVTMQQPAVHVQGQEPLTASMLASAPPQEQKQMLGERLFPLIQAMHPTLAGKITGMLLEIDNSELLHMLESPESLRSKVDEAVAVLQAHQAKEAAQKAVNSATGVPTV
# Rce1 inhib: blocks yeast Ras-converting enzyme; yeast membranes, quenched prenylated peptide cleavage fluorescence; actives 0.27% (n = 290,000); calls only; Q03530;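 active = fall in fluorescence gain of 50% or more versus controls, with final raw signal at or below 3038400; inconclusive = same 50% fall but final raw signal above 3038400; inactive = fall in fluorescence gain under 50%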;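 note: plate controls were neutral control wells for no effect and wells lacking membranes for full effect; tested at 10 µM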
# Yeast UUG start: alters start codon recognition fidelity in yeast. actives 0.13% (n = 350,000). activity score, % at 18.7 µM. S. cerevisiae UUG-firefly luciferase reporter, luminescence/redox ratio. AID 602363;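 active = replicate mean at a twofold rise or more, about +100% in these data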;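 note: firefly luciferase made from a UUG start codon reports start codon fidelity; reporter light over untreated wells divided by growth signal over untreated wells; some hits fall short of that in this replicate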
# CSC inhib: blocks cancer stem cells; cancer stem cell-like cells viability, luminescence; inhibition, % at 7.5 µM; actives 1.1% (n = 300,000);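 active = mean at 75% or more and at least half the replicates too; inconclusive = mean and replicates disagree; tested in HMLE shEcad cells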;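 note: 0% = median of negative and 100% = median of positive control wells; the first replicate is given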
# HIV Env fusion: inhibitors of HIV Env-mediated cell fusion. HeLa-JRFL Env/CEM21 cell fusion, luciferase. inhibition, % at 12.3 µM. actives 1.1% (n = 360,000). AID 651610;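 active = mean replicate inhibition score of at least 50 and every replicate individually at or above 50; inconclusive = only one of the two criteria met; inactive = mean below 50 and not all replicates reaching 50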;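 note: 0% = plate neutral controls and 100% = maraviroc near 300 nM; one replicate is shown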
# eIF4H inh: inhibitors of RNA binding by human eIF4H; inhibition, % at 35 µM; AID 2012; eIF4H fluorescence polarization binding assay; actives 0.94% (n = 290,000);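 active = 50% or more with normal probe brightness, or confirmed in later tests; inconclusive = above 50% with abnormal brightness, or retests that disagree; inactive = below 50% or failed in later tests; about a fifth of its hits are not listed in these tables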;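 note: calls also rest on retests at 20 µM and on dose response follow-up; 0% = protein and probe with vehicle and 100% = probe without protein; strong numbers were not always called active; many hits fall short of the cut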
# eIF4H inh retest: further read-out of eIF4H inh, marked with its call; inhibition, %; compound at 20 µM; confirmation average;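 mean of two retest wells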
# PABP FP inh retest: recorded beside PABP FP inh, whose call it bears; inhibition, %; compound at 20 µM; confirmation repeats;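 mean of two retest wells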
# MT1-MMP act inh RFP: also measured in MT1-MMP act inh; calls as there; RFP signal change, %; measured here: RFP expression control read;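 0 = vehicle wells; hits needed this value within 50% of zero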
# * = called active by the depositor; i = inactive; ? = inconclusive; . = not tested or not shown; + = active, no number.
SMILES,MT1-MMP act inh,MT1-MMP act inh RFP,PABP FP inh,Rce1 inhib,Yeast UUG start,CSC inhib,HIV Env fusion,eIF4H inh,others
CN(Cc1ccc(F)cc1)S(=O)(=O)c1ccc2[nH]c(=O)[nH]c2c1,0,2,.,.,15,.,22,.,
C#CCOc1ccc(/C=C2/C(=O)NN(c3ccccc3)C2=O)cc1OC,-3,1,10,i,-28,-9,-3,2,
O=C(NN=C1CCCCCC1)C(=O)Nc1cccc(Br)c1,2,4,-5,i,-15,-7,.,4,
CCN=c1scc(C)n1/N=C/c1cc(Br)c(O)c(Br)c1,3,2,-9,i,.,50,3,-2,
CCc1nc(C)cn1S(=O)(=O)c1ccc(Br)cc1,-3,3,37,i,0,0,-7,-7,
Cc1ccc(O)c(NC(=O)CSc2n[nH]c(-c3ccccc3)n2)c1,5,-14,15,i,-2,20,2,0,
Cc1nn(C)c(C(=O)NNC(=O)Nc2cccc(C(F)(F)F)c2)c1Cl,0,-11,26,i,.,-9,27,-11,
Cc1cc(-n2[nH]c(C)c(C)c2=O)nc(-c2ccccc2O)n1,-1,4,14,i,-12,18,.,-4,
COc1ccc(COC(=O)Nc2c(SC)nsc2SC)cc1,-2,-2,-1,i,.,16,6,-2,
CNC(=S)N/N=C/c1cn(Cc2c(F)cccc2Cl)c2ccccc12,1,-9,0,+,.,47,-18,-6,
CCCN(CCC)CCNS(=O)(=O)c1ccc2c(c1)oc(=O)n2C,10,1,10,i,-11,-9,-23,11,
CCC(Oc1ccc2c(c1)C(=O)CC(C)(C)O2)C(=O)NCCN1CCCCCC1 (configuration not stated),1,2,7,i,65,.,34,31,

# Reprinted from the part before: 2 compounds, then new ones.
SMILES,MT1-MMP act inh,MT1-MMP act inh RFP,PABP FP inh,Rce1 inhib,Yeast UUG start,CSC inhib,HIV Env fusion,eIF4H inh,others
CCCN(CCC)CCNS(=O)(=O)c1ccc2c(c1)oc(=O)n2C,10,1,10,i,-11,-9,-23,11,
CCC(Oc1ccc2c(c1)C(=O)CC(C)(C)O2)C(=O)NCCN1CCCCCC1 (configuration not stated),1,2,7,i,65,.,34,31,
O=C(Nc1ccc(F)c(Cl)c1)c1cc(C2CCCN(S(=O)(=O)c3cccc4cccnc34)C2)on1 (configuration not stated),8,-10,.,.,-11,.,-14,.,
Cc1ccc(-n2nnc3c(=O)n(Cc4ccccn4)cnc32)cc1C,3,0,-9,i,-16,-3,-11,-4,
O=C(NCCc1c[nH]c2ccccc12)c1ccc2c(c1)OCO2,-1,-1,13,i,-16,-1,-76,0,
CC(C)CCn1c(=O)c2ccccc2n2c(CCC(=O)NCC3CCCO3)nnc12 (configuration not stated),4,1,-7,i,-5,5,18,-5,
NC(=O)C1CCN(c2oc(-c3ccc(F)cc3)nc2S(=O)(=O)c2ccccc2)CC1,-1,-1,.,.,-12,-23,.,.,
CCCc1nnc(NC(=O)C(C)N2C(=O)C3C4C=CC(C4)C3C2=O)s1 (configuration not stated),-1,5,-13,i,-10,8,-51,0,
COc1ccc(OC)c(N(C(=O)c2ccco2)C(C(=O)NC2CCCC2)c2cc(OC)c(OC)c(OC)c2)c1 (configuration not stated),-1,2,2,i,1,7,-9,-12,
CC(C)(C)NC(=O)Cn1c(SCC(=O)N2CCCCCC2)nc2ccccc21,15,59,-9,i,-13,-10,-38,-4,
CCN(C(=O)C(C)N1C(=O)/C(=C/c2ccco2)SC1=S)C1CCS(=O)(=O)C1 (configuration not stated),15,19,32*,i,-20,28,0,54*,eIF4H inh retest=91*;PABP FP inh retest=77*
COc1ccccc1N(CC(O)Cn1ccnc1C)S(=O)(=O)c1ccc(C)cc1 (configuration not stated),-3,-4,-4,i,.,8,11,3,
NC(=O)CSc1nc(-c2ccccc2)nc2c1CCCC2,-3,1,7,i,.,-6,0,-2,
CCOC(=O)c1ccc(NC(=O)NCCN2CCCCC2)cc1,3,2,-5,i,-13,.,34,10,
Brc1ccc(-c2nnc3n2CCCCC3)cc1,0,6,-3,i,-12,.,.,-10,
Cc1ccc(S(=O)(=O)NC(=O)C2(C)CCN2C(=O)c2ccc(C(F)(F)F)nc2C)cc1 (configuration not stated),-2,2,.,.,-6,.,12,.,
N#CC1C(=O)NC(=O)CC12CCCCC2 (configuration not stated),0,4,.,.,-10,.,2,.,
Cc1cnc(C(=O)N2CCCC(C(=O)c3ccc(C(F)(F)F)cc3)C2)cn1 (configuration not stated),2,1,-2,i,.,23,-4,0,
CCn1c(SCC(=O)OCc2ccccc2)nnc1-c1ccco1,6,-5,-7,i,-8,-9,.,-9,
NS(=O)(=O)c1ccc(CCN=Cc2ccccc2O)cc1,1,6,-1,i,-13,0,2,14,
CCN(CC)c1ccc(/C=N/NS(=O)(=O)c2cccc([N+](=O)[O-])c2)cc1,-2,-1,-11,i,3,-4,.,-9,
O=C(Nc1ccc(S(=O)(=O)NCc2cccnc2)cc1)c1ccco1,3,-19,6,i,-23,2,65*,-2,
O=C(Cc1ccc([N+](=O)[O-])cc1)N1CCCc2ccccc21,0,1,6,i,.,7,8,7,
Cc1cc(C)nc(SCc2nnc(SCC(=O)OC3CCCCC3)o2)n1,2,-3,-1,i,.,-19,-76,6,
CCc1cc(OCCOCCN(C)C)ccc1Cl,7,5,12,i,.,28,0,3,
CCc1ccc2[nH]c(=O)c(CN(Cc3nnnn3C3CCCC3)C3CCCCC3)cc2c1,-9,-3,18,.,-11,.,.,-5,

# Random excerpt: three records from the list.
SMILES,MT1-MMP act inh,MT1-MMP act inh RFP,PABP FP inh,Rce1 inhib,Yeast UUG start,CSC inhib,HIV Env fusion,eIF4H inh,others
CCc1cc(OCCOCCN(C)C)ccc1Cl,7,5,12,i,.,28,0,3,
O=C(Nc1ccc(S(=O)(=O)NCc2cccnc2)cc1)c1ccco1,3,-19,6,i,-23,2,65*,-2,
Cc1cc(C)nc(SCc2nnc(SCC(=O)OC3CCCCC3)o2)n1,2,-3,-1,i,.,-19,-76,6,

# Among those listed so far, four have an aryl methoxy group:
SMILES,MT1-MMP act inh,MT1-MMP act inh RFP,PABP FP inh,Rce1 inhib,Yeast UUG start,CSC inhib,HIV Env fusion,eIF4H inh,others
C#CCOc1ccc(/C=C2/C(=O)NN(c3ccccc3)C2=O)cc1OC,-3,1,10,i,-28,-9,-3,2,
COc1ccc(COC(=O)Nc2c(SC)nsc2SC)cc1,-2,-2,-1,i,.,16,6,-2,
COc1ccc(OC)c(N(C(=O)c2ccco2)C(C(=O)NC2CCCC2)c2cc(OC)c(OC)c(OC)c2)c1 (configuration not stated),-1,2,2,i,1,7,-9,-12,
COc1ccccc1N(CC(O)Cn1ccnc1C)S(=O)(=O)c1ccc(C)cc1 (configuration not stated),-3,-4,-4,i,.,8,11,3,

# (more compounds)
SMILES,MT1-MMP act inh,MT1-MMP act inh RFP,PABP FP inh,Rce1 inhib,Yeast UUG start,CSC inhib,HIV Env fusion,eIF4H inh,others
O=C(O)C1CCCC[C@H]1C(=O)Nc1ncc([N+](=O)[O-])s1 (some centres not stated),3,4,.,.,3,-11,-12,.,
COc1ccc(/C=N/NC(=O)c2ccccc2)cc1CN1CCN(c2ccc(F)cc2)CC1,3,-3,-12,i,7,-3,.,10,
Cc1oc(-c2ccccc2F)nc1CS(=O)CC(=O)NC1CCCCC1 (configuration not stated),-1,2,-2,i,3,11,.,0,
Cc1noc(C)c1COC(=O)c1cc(S(=O)(=O)N2CCOCC2)ccc1Cl,4,-4,.,.,-2,-10,-11,.,
CN(C(=O)c1cccc(NC(=O)Cc2ccc(NC(=O)C3CCN(C(=O)C4CCC4)CC3)cc2)c1)C1CCCCC1,-4,0,.,.,-16,.,-44,.,
COc1ccc([N+](=O)[O-])cc1NC(=O)CCN1CCOCC1,0,1,-8,i,-1,6,-9,3,
COc1ccc(C(=O)NC(=S)N2CCCCC2)cc1,4,2,-4,i,-10,11,-34,1,
COC(=O)c1sc(=S)n(Cc2ccccc2)c1C,-1,8,0,i,-21,5,-8,-1,
O=C(OCc1cc2ccccc2[nH]c1=O)c1cccc([N+](=O)[O-])c1,0,-2,13,i,.,-13,5,-2,
Cc1cccc(N/N=C/c2ccc(O)c(O)c2O)c1,-14,8,-8,i,.,6,12,4,
CCOC(=O)c1ccccc1OC(=O)Oc1ccccc1C(=O)OCC,-1,2,.,.,4,.,0,.,
O=C(c1ccccc1)N1CCN(C(=O)c2cc3ccccc3o2)CC1,3,0,-8,i,.,3,.,-5,
Cc1ccc(NC(=O)C(=O)NC2CCCCC2)cc1,-1,1,4,i,-12,.,.,0,
CCOC(=O)NC1(NCC(C)C)Oc2ccccc2O1,-5,-2,21,i,-14,46,-11,28,
O=C(c1nc[nH]c1C(=O)N1CCc2ccccc2C1)N1CCc2ccccc2C1,1,0,.,.,10,-14,-4,.,
Cc1ccc(S(=O)(=O)N2CCC(C(=O)NCCC3=CCCCC3)CC2)c(C)c1,3,-6,.,i,-2,12,9,.,
CN(CC(=O)Nc1ccc(Cl)c(Cl)c1)C(=O)c1cccc2cccnc12,4,-2,.,.,-27,-17,7,.,
COc1ccccc1CCC(=O)OCC(=O)Nc1ccc2[nH]c(=O)[nH]c2c1,-3,2,.,i,-11,-14,-1,.,
CCOC(=O)C1(CCc2ccccc2)CCN(C(=O)CCc2cnn(C)c2)CC1,-3,4,-5,.,.,6,-14,0,
Cc1ccc2[nH]c3c(=O)n(Cc4ccncc4)cnc3c2c1,5,-1,-9,i,-14,10,.,-14,
O=C(Cc1ccc([N+](=O)[O-])cc1)N1CCN(c2ccc([N+](=O)[O-])cc2)CC1,5,-11,8,i,-9,-3,42,4,
COc1cccc(N2C(=O)Nc3ccc(Br)cc3C2(O)C(=O)NCCCN(C)C)c1 (configuration not stated),5,-1,24,i,5,-6,4,22,
Cc1ccc(S(=O)C(c2ccccc2)c2ccccc2)cc1 (configuration not stated),-7,-4,.,.,-3,.,10,.,
O=C(/C=C/c1ccc(Br)cc1)NCCCn1ccnc1,4,1,10,i,-20,12,-17,1,
CCOC(=O)N1CCN(C(=O)COc2ccc(S(=O)(=O)NCC(C)C)cc2C)CC1,2,-3,-5,i,-1,.,8,-6,
O=C(Nc1cccc(Br)c1)c1ccc2nc(N3C(=O)CCC3=O)sc2c1,-2,2,-3,i,-23,-10,-92,-5,
Cc1ccc(C)c(NC(=O)CN(C)C(=O)[C@@H](NC(N)=O)C(C)C)c1,-4,-1,?,i,.,-7,-6,-6,
CSc1nnc(-c2ccccc2Cl)o1,-1,3,3,i,-10,-8,.,2,
CCOc1ccc(NC(=S)NNC(=S)Nc2cccc(C(F)(F)F)c2)cc1,2,0,5,i,.,34,-9,1,

# Screens (PubChem BioAssay)
